Compound activity from PubChem.
VACV mCherry inh: vaccinia inhibition (mCherry reporter); Vaccinia virus mCherry reporter infection, fluorescence; about a quarter of the inactives have no number; Potency, µM (top dose mostly 36.5 µM), without a hit: top-dose activity change, negative = inhibition, actives largely listed as inhibitors; 310,000 tested, 0.63% active; active = well fitted inhibition curve with a large enough effect; inconclusive = small, poorly fitted or top-dose-only effect; inactive = no such curve, though single readings can be large or run the other way; tested in A549 cells; note: nearly all actives have a fitted effect of over 35% in size; inactives centre near -10
Vaccinia Venus: vaccinia inhibition (Venus reporter) | Vaccinia virus Venus reporter expression, fluorescence | Potency, µM (series often up to 36.5 µM), for the others: top-dose activity change, negative = inhibition, most hits filed as inhibitors | 330,000 tested, 0.46% active | AID 720580; active means well fitted inhibition curve with a large enough effect; inconclusive means small, poorly fitted or top-dose-only effect; inactive means no such curve, though single readings can be large or run the other way; tested in A549 cells; note: nearly all actives have a fitted effect of over 30% in size; inactives centre near -10
Starred values were filed as active, the others as inactive; i = inactive; u = inconclusive; x = no result given; & = joins results of further samples; [ ] = dose if it differs, or a comment. % is set by controls: 0 for no effect and ±100 for the full control effect; potency is the fitted concentration of half-maximal effect.

SMILES | VACV mCherry inh | Vaccinia Venus
O=c1c2cc3c(cc2n(Cc2ccc(Cl)cc2)c(=O)n1Cc1nc(-c2ccccc2)no1)OCO3 | 0% | -10%
CC1=C(c2ccc(C)c(C)c2)S(=O)(=O)N=C1N1CCC(C(=O)NCc2ccccc2C)CC1 | -10% | 0%
COc1ccc(/C=N/OCC(=O)Nc2ccc3c(c2)OCO3)c(OC)c1 | i | -15%
Cc1ccc(-n2nnnc2C2CCN(S(=O)(=O)c3ccc(OC(F)(F)F)cc3)CC2)cc1 | -26% | -18%
CC(Oc1ccc(F)cc1)C(=O)Nc1cc(S(=O)(=O)N2CCCCC2)ccc1N1CCOCC1 (centres undefined) | -23% | -12%
CCOC(=O)C1=C(c2ccccc2)N(C)C(=O)NC1c1ccc(OC(F)F)c(OC)c1 (centres undefined) | x | -15%
CCc1ccc2nc(N(CCCN(C)C)C(=O)c3ccc(S(=O)(=O)N4CCCc5ccccc54)cc3)sc2c1 | u | u
Cc1ccc(S(=O)(=O)N2CCN(C(=O)CC3CCCC3)CC2)cc1 | -8% | -2%
CCC1(C)NC(=O)N(CC(=O)c2cc(C)n(C3CC3)c2C)C1=O (centres undefined) | i | 4%
COCCn1c(SCc2ccc(OC)c(F)c2)nc2ccccc2c1=O | -4% | -10%
C=CCc1c(C)nc2c(OC)cccc2c1Cl | -8% | -14%
COCCNC(=O)C(c1ccccc1)N(CCOC)C(=O)Cn1nnc2ccccc21 (centres undefined) | i | -3%
Cc1ccc(C(=O)N2c3ncnn3C3(CCCCC3)[C@@H]3CCCC[C@@H]32)cc1 | -7% | 1%
COc1cccc(-c2nc(CS(=O)(=O)CC(=O)NCCC(C)C)c(C)o2)c1 | i | -15%
O=C(Cc1ccccc1)N(c1ccccc1)c1ccccc1 | 18% | 8%

Reformatted: results already given
Compound	VACV mCherry inh	Vaccinia Venus
Cc1ccc(-n2nnnc2C2CCN(S(=O)(=O)c3ccc(OC(F)(F)F)cc3)CC2)cc1	-26%	-18%
COc1ccc(/C=N/OCC(=O)Nc2ccc3c(c2)OCO3)c(OC)c1	i	-15%
C=CCc1c(C)nc2c(OC)cccc2c1Cl	-8%	-14%
CCOC(=O)C1=C(c2ccccc2)N(C)C(=O)NC1c1ccc(OC(F)F)c(OC)c1 (centres undefined)	x	-15%
O=c1c2cc3c(cc2n(Cc2ccc(Cl)cc2)c(=O)n1Cc1nc(-c2ccccc2)no1)OCO3	0%	-10%
Cc1ccc(S(=O)(=O)N2CCN(C(=O)CC3CCCC3)CC2)cc1	-8%	-2%

Retrieved by structure from the list above, three records:
SMILES | VACV mCherry inh | Vaccinia Venus
Cc1ccc(-n2nnnc2C2CCN(S(=O)(=O)c3ccc(OC(F)(F)F)cc3)CC2)cc1 | -26% | -18%
CC(Oc1ccc(F)cc1)C(=O)Nc1cc(S(=O)(=O)N2CCCCC2)ccc1N1CCOCC1 (centres undefined) | -23% | -12%
CCC1(C)NC(=O)N(CC(=O)c2cc(C)n(C3CC3)c2C)C1=O (centres undefined) | i | 4%

Carrying on.
SMILES | VACV mCherry inh | Vaccinia Venus
O=C1NC(=Nc2cccc([N+](=O)[O-])c2)SC1(CO)CO | -22% | -9%
CC(C)(C)OC(=O)N1CCN(Cc2ccc(F)c(B(O)O)c2)CC1 | -4% | 3%
Cc1ccc(C(=O)NC2CCN(CC(=O)NC3CCC(C)CC3)CC2)cc1 (centres undefined) | -21% | -3%
COc1cc(C)nc(N(C)C(C)=O)n1 | -5% | -7%
COc1ccc(N2N=NN(C(C)C)C2=C(Cl)c2nnnn2-c2ccc(OC)cc2)cc1 | -12% | -13%
Cc1ccc(Cc2cnc(NC(=O)c3cccs3)s2)cc1 | u | u
CC1(C)CC(=O)CC(C)(C)N1OC(=O)c1ccccn1 | x | 2%
O=C(Nc1ccccc1Cl)c1ccccc1S(=O)(=O)c1ccccc1[N+](=O)[O-] | -1% | -20%
CC(NC(=O)c1ccco1)c1nc(-c2ccccc2)no1 (centres undefined) | -5%&-8% | 8%&1%
COc1cc(C(=O)Oc2ccccc2/C=N/NC(=O)c2ccc(Cl)cc2)cc(OC)c1OC | u | u
Cc1cc(C)c(C#N)c(SCc2nnc(-c3ccccc3[N+](=O)[O-])o2)n1 | -20% | -14%
CCN1CCN(C(=O)c2ccc(OCC(=O)Nc3ccc(F)cc3)c(OC)c2)CC1 | -1% | 3%
NC(=O)c1oc2ccccc2c1NC(=O)c1ccco1 | -6% | -3%
CCOc1cc(/C=C2/C(=N)N3OC(C)=CC3=NC2=O)ccc1OCCOc1ccccc1 | i | -12%
CCCCNC(=O)CSc1nnc(Cc2ccc(Cl)c(Cl)c2)c(=O)[nH]1 | i | -6%
COCCCNC(=O)c1c(N)n(/N=C/c2cccnc2)c2nc3ccccc3nc12 | i | -5%
O=C(OC(C(=O)NCc1ccc2c(c1)OCO2)c1ccncc1)c1ccc(Cl)nc1 (centres undefined) | -15% | -13%
Cc1ccc(S(=O)(=O)CCC(=O)NCCC2=CCCCC2)cc1 | i | 5%
Cc1cc(C)nc(NC(=O)c2ccc(OC(C)C)cc2)n1 | i | -7%
Cc1oc2ncnc(N3CCCCC3)c2c1C(=O)Nc1cccc(Cl)c1C | i | -12%
COc1cccc(NC(=S)N2CCN(Cc3ccccc3)CC2)c1 | -22% | -11%
O=C(CSc1nnc(-c2ccncc2)o1)Nc1cccc(Cl)c1 | i | -9%
COc1ccc(NC(=O)CSc2nc3ccccc3c3nc4ccccc4n23)cc1 | -28% | -19%
CC(=O)Nc1ccc(NC(=O)c2c(C)nn(-c3ccccc3)c2-n2cccc2)cc1 | -7% | 2%
CCN(C(=O)c1oc2ccc(S(=O)(=O)N3CCCCCC3)cc2c1C)c1ccccc1 | -13% | -11%
Cc1nnc(NC(=O)c2cccn(Cc3ccc(Cl)cc3)c2=O)s1 | -10% | -5%
O=C(Cc1cccc(NC(=O)C2CCN(C(=O)C3CC3)CC2)c1)Nc1cccc(C(=O)N2CCCC2)c1 | i | -11%
Cc1ccc(NC(=O)CN(C)C(=O)COC(=O)COc2cc(C)cc(C)c2)cc1 | i | 2%
CCN(CC(=O)Nc1ccc(NC(C)=O)cc1)C(=O)/C=C/c1ccc([N+](=O)[O-])cc1 | i | -11%
Cc1ccc(-c2csc(NC(=O)COc3ccc(N(C)S(=O)(=O)c4ccc(C)cc4)cc3)n2)cc1 | i | -18%
CC(=O)N1CCC(C(=O)Nc2nnc(C(C)C)s2)CC1 | 0% | -8%
O=C(NC(=S)Nc1cc(Cl)ccc1Cl)c1ccco1 | i | -4%
CCn1c(-c2cccn(Cc3ccc(Cl)cc3Cl)c2=O)n[nH]c1=S | -4% | -6%
CN[C@@H](C)[C@@H](O)c1ccccc1 | i | -11%
Cc1ccc(C(=O)C2=C(O)C(=O)N(Cc3cccnc3)C2c2cccc(Oc3ccccc3)c2)o1 (centres undefined) | -16% | -8%
COc1ccc(C2C(C(=O)Nc3cccc(C)n3)c3ccccc3C(=O)N2C)cc1 (centres undefined) | -12% | -4%
CCOC(=O)C/C(C)=N/NC(=O)CNc1cccc(Cl)c1C | 1% | 5%
CCCN1CCN(CCCNC(=O)c2ccc(CS(=O)c3ccccc3C)o2)CC1 (centres undefined) | -14% | -3%
CC(=O)c1ccc[nH]1 | -5% | 0%
O=C(NCc1ccc(Cl)c(Cl)c1)c1cc(C2CCCCN2C(=O)CCc2ccccc2)on1 (centres undefined) | i | -26%
N#C/C(=C(/O)COC(=O)c1ccccc1O)c1nc2ccccc2s1 | 6% | 16%
O=C(CSc1nnnn1-c1ccc(F)cc1)NC1CCCCC1 | i | u
O=C(Nc1ccc2c(c1)[C@@H]1C[C@@H](CC(=O)N3CCOCC3)O[C@@H](CO)[C@@H]1O2)NC1CCCC1 | 0% | -6%
Cc1ccc(N(C(=O)c2ccc3c(c2)OCO3)C2C=CS(=O)(=O)C2)cc1C (centres undefined) | -12% | -1%
COC(=O)[C@]12CCCCC=C1N(Cc1ccco1)C(=O)[C@H](CC(=O)NCCCN1CCCC1=O)C2 | 14% | 10%

6 compounds already listed, ordered by molar mass, smallest number first:
SMILES | VACV mCherry inh | Vaccinia Venus
CC(=O)N1CCC(C(=O)Nc2nnc(C(C)C)s2)CC1 | 0% | -8%
O=C(NC(=S)Nc1cc(Cl)ccc1Cl)c1ccco1 | i | -4%
CCOC(=O)C/C(C)=N/NC(=O)CNc1cccc(Cl)c1C | 1% | 5%
O=C(CSc1nnnn1-c1ccc(F)cc1)NC1CCCCC1 | i | u
CCn1c(-c2cccn(Cc3ccc(Cl)cc3Cl)c2=O)n[nH]c1=S | -4% | -6%
O=C(Nc1ccc2c(c1)[C@@H]1C[C@@H](CC(=O)N3CCOCC3)O[C@@H](CO)[C@@H]1O2)NC1CCCC1 | 0% | -6%

Carrying on.
SMILES | VACV mCherry inh | Vaccinia Venus
CCSCc1nnc(SCC(=O)Nc2nccs2)n1CC | -5% | 0%
O=C(CCc1ccccc1)Nc1ccc(NC(=O)C2CCCCC2)nc1 | i | -5%
CC(C)OCCCNC(=O)c1ccc2c(c1)ncn2C1CCCC1 | -12% | -5%
COc1ccc(NC(=O)CSCC(=O)N(C)Cc2c(F)cccc2Cl)cc1 | i | -18%
O=C1c2ccccc2NC(c2ccccc2)N1CCCN1CCOCC1 (centres undefined) | i | 1%
O=C1OC(NC(=O)c2ccccc2)C(n2cc(CO)nn2)=C1Cl (centres undefined) | -11% | -16%
O=C(NCc1cccs1)c1ccc([N+](=O)[O-])cc1 | -18% | -25%
O=C(O)CSc1nnc(-c2ccc(Cl)cc2Cl)n1-c1ccc(Cl)cc1 | i | -5%
COC(=O)[C@]12CCCCC=C1N(Cc1cccc3ccccc13)C(=O)[C@H](CC(=O)NCc1cccs1)C2 | i | -11%
O=C(CCNC(=O)C1CCN(S(=O)(=O)c2ccc(F)cc2)CC1)NCCc1cccc(F)c1 | -17% | -7%
O=C(N1CCCCCC1)N1CCN(C(=O)N2CCOCC2)CC1 | x | -20%
C=CCn1c(SCc2nc3ccccc3c(=O)[nH]2)nc2sc3c(c2c1=O)CCCC3 | 3%[7.34 µM] | 9%[7.34 µM]
CC[C@H](C)[C@H](NC(=O)OCc1ccccc1)C(=O)OCC(=O)N(C)CC(=O)Nc1ccccc1Cl | i | -11%
Cc1ccc(Cl)cc1N1CCN(C(=O)CN(C2CCCCC2)S(C)(=O)=O)CC1 | u | -29%
COc1ccc(CNC(=O)c2ccc(-c3nc(CSc4ccccc4)c(C)o3)cc2)cc1OC | -14% | 7%
CCC1(c2ccccc2)NC(=O)N(CC(=O)N(C)Cc2c(F)cccc2Cl)C1=O (centres undefined) | i | 0%
c1ccc2[nH]c(-c3ccc4c(c3)OCO4)nc2c1 | 10% | -16%
CCCn1c(SCC(=O)NCCc2ccccc2)nnc1-c1ccccn1 | -25% | -13%
C[C@H](NC(=O)c1ccccc1Cl)C(=O)OC(C(=O)Nc1cc(C(F)(F)F)ccc1Cl)c1ccccc1 (some centres undefined) | i | -16%
O=C(NCCO)C1CCN(S(=O)(=O)c2ccc(F)cc2)CC1 | 0% | 3%
Cc1ccc(CN2C(=O)c3ccccc3Sc3ccc(C(=O)NC4CCCCC4)cc32)cc1 | -21% | -13%
Cc1c(Cl)cccc1NC(=O)c1ccc2c(c1)nnn2C1CCCC1 | -7% | -19%
O=C(CCl)N(CCc1ccccc1)CCc1ccccc1 | i | -10%
CCCCNc1cc(C)nc(NCc2ccccc2)n1 | -19%[1.46 µM] | u
CC(O)(c1cccc(F)c1)c1nc(-c2cccc(F)c2)cs1 (centres undefined) | -17% | -27%
CC(C)CC(=O)Nc1ccc(C(=O)NNC(=S)NC(=O)C2CCCCC2)cc1 | -12% | -13%
COc1ccc(C(=O)/C=C2\NCC3c4ccccc4CCN3C2=O)cc1 (centres undefined) | -14% | -19%
CCOC(=O)N1CCC(NC(=O)c2ccc3c(c2)N(Cc2ccccc2C)C(=O)c2ccccc2S3=O)CC1 (centres undefined) | -8% | -18%
O=C1Nc2ccccc2-n2nnnc2C1N1CCN(C(=O)C2CCCO2)CC1 (centres undefined) | 4% | 5%
CC(C)OCCCNC(=O)CN1C(=O)c2cccc3cccc1c23 | -21% | -17%
COc1cc2ccc(=O)oc2c(CC=C(C)C)c1OC | 2% | -3%
CCOCCCNC(=O)C1CCN(C(=O)c2cc3sccc3n2C)CC1 | -3% | -15%
Cc1ccc(S(=O)(=O)NC2(C(=O)O)CCCC2)cc1 | i | -3%
O=C(CCC1CCCN(C(=O)COc2ccccc2)C1)N1CCN(c2ccccn2)CC1 (centres undefined) | i | -6%
COc1ccc2[nH]c(C)c(CCNS(=O)(=O)c3cc(F)ccc3OC)c2c1 | -22% | -14%
Cc1ccc(CN2CCNC(=O)C2CC(=O)NC2CCCCCC2)o1 (centres undefined) | 0% | -8%
COc1ccc(CCNC(=O)CSc2nncs2)cc1 | -18% | -7%
CN(C)c1ccc(NC(=S)NCC2CCCO2)cc1 (centres undefined) | 0% | 2%
CCOc1ccc2ccccc2c1C(=O)N1CCOCC1 | -16% | -3%
Cc1cc(C)n2nc(C(=O)OCC(=O)N3CCC3)nc2n1 | i | -17%
COC(=O)c1c(Cc2ccccc2Cl)c[nH]c1C | -9% | -11%
COc1cc(CC(=O)N2CCc3ccccc32)cc(OC)c1OC | u | -28%
COc1cc(/C=N/NC(=O)c2sc3ccccc3c2Cl)ccc1OC(=O)c1ccc([N+](=O)[O-])cc1 | i[7.34 µM] | -15%[7.34 µM]
CC(=O)NC(=Cc1ccccc1)C(=O)N1CCCC1C(=O)O (centres undefined) | i | -7%

Entries shown so far that have a cyano group:
SMILES | VACV mCherry inh | Vaccinia Venus
Cc1cc(C)c(C#N)c(SCc2nnc(-c3ccccc3[N+](=O)[O-])o2)n1 | -20% | -14%
N#C/C(=C(/O)COC(=O)c1ccccc1O)c1nc2ccccc2s1 | 6% | 16%
